Beta cell apopt: blocks beta cell apoptosis; INS-1E cytokine-induced death, ATP luminescence, 48 h; percent of positive-control rescue, neutral wells zero; protection from apoptosis, % (test concentration not listed); actives 0.8% (n = 300,000);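 active = all replicates at 75% or more, or half of them and the mean; inconclusive = half reach 75% but not the mean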;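 note: 0% = cytokine-treated negative control wells and 100% = positive control rescue; higher means more ATP so stronger rescue from cytokine killing; wells of about 40 µL received 100 nL stock; the first replicate is given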
Calb FLC: affects C. albicans growth with fluconazole. C. albicans CaCi-2 (fluconazole-resistant clinical isolate) + fluconazole, Alamar Blue growth, 48 h. actives 0.57% (n = 300,000). growth inhibition, % (test concentration not listed). AID 1979;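 active = most replicates above 75%; inconclusive = exactly half above 75%; inactive = most below 75%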;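 note: all wells also contain fluconazole at 8 µg/ml as a sub-toxic cotreatment; 0% = median of DMSO wells and 100% = median of geldanamycin control wells; wells of about 8 µL received 7.5 nL stock; the first replicate is given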
MLL AF4-AF9 inh: MLL-AF4/AF9 protein interaction inhibition | AlphaScreen, biotin-AF4 peptide binding to FLAG-AF9 | inhibition, % at 10 µM | actives 0.47% (n = 350,000) | AID 651704;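 active = every replicate reaching a set inhibition limit, whatever the replicate mean, cut at about 25% in these data; inconclusive = mean inhibition reaches that limit but some replicates miss it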;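 note: 0% = plate neutral control median and 100% = total signal loss; the record names both 10 and 1 µM as test concentration; the first replicate is given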
Target sequence (P42568 whole entry, looked up): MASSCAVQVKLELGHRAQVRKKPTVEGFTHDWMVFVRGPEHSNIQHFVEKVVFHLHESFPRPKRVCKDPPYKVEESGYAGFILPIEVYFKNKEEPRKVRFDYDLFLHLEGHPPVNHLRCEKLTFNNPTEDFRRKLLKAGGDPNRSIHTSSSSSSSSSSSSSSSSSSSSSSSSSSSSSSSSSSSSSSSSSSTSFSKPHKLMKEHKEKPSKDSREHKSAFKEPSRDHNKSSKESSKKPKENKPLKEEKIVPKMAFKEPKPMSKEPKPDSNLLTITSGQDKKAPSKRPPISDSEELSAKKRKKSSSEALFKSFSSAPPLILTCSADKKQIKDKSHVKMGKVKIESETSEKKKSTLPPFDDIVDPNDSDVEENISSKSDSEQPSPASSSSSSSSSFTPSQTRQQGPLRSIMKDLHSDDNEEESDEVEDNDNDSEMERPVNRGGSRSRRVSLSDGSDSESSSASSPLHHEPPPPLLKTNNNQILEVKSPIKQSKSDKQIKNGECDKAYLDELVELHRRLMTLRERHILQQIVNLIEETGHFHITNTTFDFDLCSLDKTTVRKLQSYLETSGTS
Ecoli rRNA inh: selective bacterial rRNA inhibition in E. coli; E. coli WT GFP vs humanized-ribosome RFP mutants, fluorescence, 24 h; stronger effect = lower value; DMSO median 0, no signal -100; GFP signal change (wild-type ribosome), % (test concentration not listed); actives 1.6% (n = 350,000); AID 720706;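 active = significant combined selectivity score with lowered wild-type GFP, culture density cut under 30%, mutant RFP and density less affected; inactive = any of these conditions unmet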; note: one replicate is shown; some compounds called inactive have numbers as strong as hits
T cruzi inh: T. cruzi replication inhibition; T. cruzi beta-gal in NIH3T3, luminescence, 90 h; inhibition, % (concentration not given with the values); actives 1.4% (n = 300,000); AID 1885;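 active = mean inhibition across valid replicates above about 55%, limit read from the data; inconclusive = mean below that limit but half or more replicates reach it; inactive = mean below it, under half of replicates reach it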;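 note: signal also drops with host cell toxicity which is not excluded here; 0% = plate median of DMSO wells and 100% = zero luminescence signal; higher percent means less beta-gal luminescence so fewer parasites; stock transfer was 50 nL into about 50 µL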
Vif TR-FRET: HIV-1 Vif–A3G interaction blockers – biochemical, TR-FRET, GST-Vif 1-94, biotin-A3G peptide, dose response retest, primary screen (AID 1117319); TR-FRET GST-Vif / biotin-A3G peptide binding; higher % means a stronger effect; test concentration not given here; strong numbers were not always called active; inhibition, %; hits with a dose series show IC50 in µM; actives 0.57% (n = 260,000);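 active = above the screen mean plus three standard deviations and confirmed in dose response; inconclusive = results disagree or hit not tested in dose response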;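 note: Vif residues 1-94 fused to GST binding biotinylated APOBEC3G peptide 110-148; 0% = full assay without inhibitor and 100% = GST in place of GST-Vif; retest series ran down from 100 µM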
A1 inh: inhibitors of the anti-apoptotic protein A1, read as caspase activation | MEF A1-2A-BIM cells, Caspase-Glo 3/7 luminescence, 3 h; percent of clofoctol response, vehicle zero | caspase activation, % (no concentration beside the values) | actives 0.066% (n = 330,000) | AID 2462;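 active = over half of replicate activation scores above 10%, or exactly half above 10 with the replicate mean above 10; inconclusive = replicate mean below 10 yet half the replicates above 10; inactive = over half of replicates below 10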;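 note: wells of about 30 µL received 50 nL stock; many hits fall short of the cut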
RanGTP-Impb inh: inhibitors of RanGTP-importin-beta interaction, primary screen, biochemical, FRET, CFP-Ran, YFP-importin-beta, homogeneous | AID 2216 | actives 1.1% (n = 300,000) | inhibition, % (test concentration not listed) | cell-free CFP-Ran/YFP-importin-beta FRET ratio;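 active = most replicates above 15%; inconclusive = exactly half above 15%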;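 note: 0% = DMSO wells and 100% = Ran loaded with GDP instead of GTP; wells of about 40 µL received 100 nL stock; the first replicate is given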
Ecoli rRNA inh OD600: second read-out of Ecoli rRNA inh, no call of its own (marks repeat the call); OD600 change, %; measured here: OD600 growth;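 optical density of the mix in the first replicate; 0 = DMSO median and -100 = no signal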
Ecoli rRNA inh RFP: recorded beside Ecoli rRNA inh, whose call it bears; RFP signal change, %; measured here: RFP humanized mutant strains;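 first replicate; 0 = DMSO median and -100 = no signal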
* hit, by the source's call; ? = inconclusive; . = not tested or not shown; & = joins results of further samples. Some of the compounds tested; count on the stated rates, not on these rows.

Screens in order – Beta cell apopt	Calb FLC	MLL AF4-AF9 inh	Ecoli rRNA inh	Ecoli rRNA inh OD600	Ecoli rRNA inh RFP	T cruzi inh	Vif TR-FRET	A1 inh	RanGTP-Impb inh
#1 COc1ccc(/C=N/NC(=O)C2(C)NC(C)(C)Cc3ccccc32)cc1 (stereo not given)
→ -8.0	2.8	0.4	4.5	5.0	-4.4	-20.7	-5.1%	0.7	-0.6
#2 CCOc1ccccc1Nc1nc(N)nc(CN(C)C2CCCCC2)n1
→ 3.0	.	.	-1.4	-5.3	-3.4	.	25.3%	-0.6	.
#3 CSc1c(CC(=O)Nc2ccccc2Cl)n(Cc2ccccc2)c2ccccc12
→ -0.1	6.0	.	.	.	.	.	?	0.3	-0.8
#4 COc1ccc(S(=O)(=O)N2CCOCC2)cc1C(=O)NC1CCCCCC1
→ -0.4	.	0.0	6.4	11.8	-0.8	.	-8.0%	-1.0	.
#5 COC(=O)c1c(NS(=O)(=O)c2ccc3ccccc3c2)sc2c1CCCC2
→ 0.2	-9.8	.	.	.	.	-6.9	2.7%	-0.7	-14.9
#6 Cc1ccc(-c2csc(NC(=O)c3cccs3)n2)cc1
→ 1.5	0.0	.	.	.	.	3.4	-0.7%	-0.8	0.1
#7 CC1(C)C(=O)NCCN1C(=O)CCCC(=O)O
→ 1.2	10.5	-0.3	6.1	6.6	1.7	-5.8	.	0.5	-5.4
#8 CC1(C(=O)OCC(=O)Nc2ccc(S(=O)(=O)N3CCOCC3)cc2)CC1(Cl)Cl (stereo not given)
→ -9.2	.	-5.8	-11.0	-16.5	2.3	.	3.6%	2.6	.
#9 O=C(c1ccc(Br)s1)N1CCc2ccccc2C1
→ -2.6	-14.9	-0.4	-17.9	-27.6	-3.9	11.5	.	-0.5	-1.9
#10 O=C(O)CCc1ccc(-c2ccccc2)n1-c1ccc(C(=O)O)cc1
→ -10.5	-6.2	.	.	.	.	-1.4	1.3%	-0.1	-0.7
#11 Cc1onc(-c2ccccc2)c1C(=O)N(Cc1ccccc1)C(C)C
→ .	-8.7	0.3	-8.3	-33.2	1.0	-1.3	-5.4%	-0.1	-6.4
#12 CC(C)(C)c1ccc(Oc2ccc(N)cn2)cc1
→ -1.4	0.6	2.8	13.2	-12.3	11.2	-1.3	7.4%	-0.4	0.1
#13 CC1=C(C(=O)Nc2cccc(C)n2)C(c2ccc3c(c2)OCO3)C2=C(CC(c3ccco3)CC2=O)N1 (stereo not given)
→ .	-2.1	.	.	.	.	0.6	1.1%	.	9.6
#14 O=C(c1ccco1)N(Cc1cc2ccccc2[nH]c1=O)C1CCCCC1
→ 0.7	9.4	.	.	.	.	12.7	4.1%	-0.7	?
#15 CC(OC(=O)c1ccc(Cl)c(S(N)(=O)=O)c1)C(=O)NCc1ccc2c(c1)OCO2 (stereo not given)
→ -3.7	.	-4.8	0.1	0.9	-1.6	15.9	-0.2%	0.5	-0.6
#16 CCN(CC)S(=O)(=O)c1ccc(N2CCOCC2)c(NC(=O)Cc2ccc(Cl)cc2)c1
→ 5.1	5.7	-2.5	-12.2	-12.6	-1.3	0.4	.	-0.2	-1.7
#17 CCOCCOC(=O)C1=C(C)Nc2ccc(C)cc2S1
→ -10.8	-3.3	.	.	.	.	-8.6	2.6%	-0.2	23.4*
#18 COc1ccccc1NC(=S)NN1CCN(C)CC1
→ -1.3	-5.1	4.5	2.8	8.2	-0.6	17.0	-0.9%	0.3	-2.0
#19 CCc1ccccc1NC(=O)CC(c1ccc(OC)cc1)n1cccc1 (stereo not given)
→ -0.2	4.5	6.1	4.4	13.2	1.8	2.1	-10.6%	-0.5	1.4
#20 Cc1ccc(CNC(=O)C2CC(c3cc(C(F)(F)F)cc(C(F)(F)F)c3)=NO2)o1 (stereo not given)
→ -12.9	7.4	-0.4	10.9	4.9	9.3	-16.5	?	0.6	0.2
#21 Cc1cc(C)cc(NC(=O)c2cc(S(=O)(=O)N3CCCC3)cn2C)c1
→ 6.3	-0.7	-3.3	7.8	4.6	5.0	-5.2	.	-0.7	-4.2
#22 CN(C(=O)C1CCCN(c2ncnc3c2nc2n3CCCCC2)C1)c1cccc(Cl)c1 (stereo not given)
→ 4.6	?	2.8	-35.6*	-27.5*	-5.3*	-2.8	.	-0.3	1.5
#23 Cc1nc(CSc2ccc(Cl)cc2)cc(N2CC(C)OC(C)C2)n1 (stereo not given)
→ 5.5	-64.4	-0.8	-32.4	-43.5	-4.9	-1.9	-5.6%	0.0	-0.3
#24 CCC(Sc1nc2ncnc(N)c2[nH]1)C(=O)O (stereo not given)
→ -0.7	18.6	0.2	3.5	5.2	-2.8	-17.1	-5.2%	0.5	0.8
#25 O=C(NC1CCSc2ccccc21)c1ccc(F)c(S(=O)(=O)N2CCOCC2)c1 (stereo not given)
→ 0.5	4.6	0.7	5.7	-3.6	-3.1	5.7	.	0.3	2.6
#26 COc1cccc(-c2cccc(NC(=O)C3CCN(C4CCC4)CC3)c2)c1
→ -5.8	-9.1	0.6	9.8	3.8	3.5	-18.3	.	0.9	-2.3
#27 OCC1(CCOc2ccccc2)CCN(Cc2cn[nH]c2-c2ccc(F)cc2)CC1
→ -1.1	18.1	2.5	1.7	-0.2	4.3	9.0	14.7%	-0.2	6.8
#28 CC(C)CC(NC(=O)CCl)c1ccccc1 (stereo not given)
→ -23.8	5.6	.	.	.	.	-51.8	79.4%	-1.2	0.7
#29 O=C(CSc1nncs1)NC1CCCCCCC1
→ 1.4	.	2.5	-1.6	1.7	-3.6	.	3.3%	-1.9	.
#30 COc1cc(O)c(C(CC(=O)N2CCN(c3ccccc3)CC2)c2ccc(N(C)C)cc2)c(OC)c1 (stereo not given)
→ 1.1	13.6	27.5*	8.6	8.2	-3.3	2.8	.	-0.7	8.6
#31 CCN(CC)c1ccc2cc(C(=O)NNC(=O)c3ccc(S(=O)(=O)N4CCCCC4)cc3)c(=O)oc2c1
→ 1.8	43.4	.	.	.	.	7.7	.	0.4	118.8*
#32 Cn1c(N)c(C(=O)COC(=O)c2ccnc3ccccc23)c(=O)n(C)c1=O
→ 0.5	8.1	-3.2	5.5	10.2	4.2	-7.7	.	-0.7	1.2
#33 COC(=O)c1sccc1NS(=O)(=O)c1ccc(F)cc1F
→ .	28.5	2.2	9.0	10.4	0.6	2.8	-0.1%	1.0	-1.5
#34 CC(=O)N1CCN(C(=S)c2ccc(Cl)cc2)CC1
→ -2.0	7.5	.	.	.	.	3.8	.	0.8	-2.6
#35 Cc1cc(C)cc(Nc2cc(=O)n(C3CCCCC3)c(=O)[nH]2)c1
→ -1.1	-13.2	.	.	.	.	4.7	11.7%	-0.2	-5.6
#36 CC(C)c1nc(-c2ccccc2)c(-c2ccccc2)[nH]1
→ 87.7*	-15.0	.	.	.	.	4.0	0.6%	0.7	-0.6
#37 CCOc1ccccc1NC(=O)c1ccc(OCC(=O)N2CCOCC2)c(OC)c1
→ -0.1	.	-0.1	5.0	5.0	-0.1	.	.	1.1	.
#38 O=C(CCn1c(=O)c2ccccc2n(CC(=O)NCCC2=CCCCC2)c1=O)NCc1ccco1
→ -0.1	-1.2	.	.	.	.	.	74.8%&-5.9%	2.0	.
#39 CCOC(=O)c1cc(-c2ccccc2)nc2nc(N(CC)CC)sc12
→ 8.5	2.2	-15.8	-4.8	-17.7	0.2	22.7	.	-1.3	45.0*
#40 CS(=O)(=O)Nc1cccc(C2=NN(C(=O)c3ccco3)C(c3cccs3)C2)c1 (stereo not given)
→ 1.7	-3.8	2.7	3.5	-11.2	9.3	7.1	.	-0.1	3.6
#41 Cc1c(C(=O)NC(Cc2ccccc2)c2nc3ccccc3[nH]2)cccc1[N+](=O)[O-] (stereo not given)
→ 2.2	1.1	1.0	-5.0	3.1	0.0	-3.2	2.7%	0.8	?
#42 Cc1c(-c2cccc(NC(=O)c3ccco3)c2)nc2ncccn12
→ 3.2	8.4	-1.9	-4.7	-4.3	3.8	65.1*	.	-1.9	3.0
#43 CC(C)[C@H](NC(=O)N1CCn2c1nc1ccccc12)C(=O)NCc1ccc2c(c1)OCO2
→ -0.6	-0.2	1.4	0.0	-4.6	2.7	2.8	-8.9%	1.6	-2.4
#44 O=C(NC(=S)Nc1ccccc1Cl)c1ccco1
→ 6.1	5.1	3.7	-5.8	-3.5	-0.6	1.5	.	-2.5	3.0
#45 Cn1nnnc1SCC(=O)NC(=O)NCc1ccccc1
→ -0.1	-4.0	.	.	.	.	-7.1	0.1%	2.1	1.2
#46 O=C(NCc1ccco1)c1noc2c1CCCCC2
→ -10.4	-24.5	.	.	.	.	-7.5	6.4%	0.5	8.1
#47 CCOC(=O)N1CCC(NC(=O)c2csc3c2CCCC3)CC1
→ 3.0	19.3	-2.2	-2.5	-7.6	1.3	6.4	3.9%	-0.4	4.4
#48 CCOc1ccc(NC(=O)C2C3C=CC4(O3)C2C(=O)N(Cc2cccnc2)C4C(=O)NC2CCCCC2)cc1 (stereo not given)
→ -5.9	-2.6	.	.	.	.	1.5	.	1.2	-12.0
#49 CN(CCC#N)C(=O)COC(=O)c1cccnc1Nc1ccccc1F
→ -0.3	-2.5	-1.3	1.6	-2.9	0.1	-10.9	-6.5%	-2.8	-2.1
#50 CN(C)/C=C/C(=O)c1ccc(Cl)cc1Cl
→ -0.6	-0.6	0.0	-27.8	-20.1	-2.4	-5.5	16.5%	-0.9	-5.6
#51 O=C(NCCCN1CCOCC1)c1ccc([N+](=O)[O-])cc1[N+](=O)[O-]
→ 1.5	15.1	-2.1	7.3	6.3	-0.4	64.7*	-2.0%	0.4	-0.9
#52 CCN(CC1CCCN(CCc2cccc(OC)c2)C1)C(=O)c1ccc(COC)o1 (stereo not given)
→ -1.1	-3.2	-0.8	4.2	15.9	1.0	77.4*	-4.0%	0.8	1.0
#53 Cc1ccccc1CNC(=O)CCC(=O)N1CCOc2ccccc21
→ -1.1	2.5	1.4	-1.2	-1.2	-7.1	-0.9	.	0.9	-7.1

Screening results deposited in PubChem by several laboratories.
